GALR2 agonist: GALR2 receptor agonists, primary screen, cell-based | activation, %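 (tested at 5 µM)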 | GALR2-expressing cells, agonist activation read-out | hit rate 0.48% among 140,000 | Galanin receptor type 2 (Homo sapiens), O43603;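 active means above mean plus 3 SD of all compounds, about 5% in these data, not always enough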;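 further: 0% = vehicle buffer wells and 100% = reference agonist at full effect; tested in CHO reporter cells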
INS promoter inh: inhibitors of insulin promoter-driven GFP, primary screen, imaging, TRM-6 cells (human fetal islet line), eGFP reporter, cell count | reporter expression induced with tamoxifen | inhibition, % at 2 µM | hit rate 0.9% among 130,000 | AID 1273, 2008;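 active means inhibition above the mean plus 3 SD, with well images judged a real hit on visual review, cut at about 60% in these data, passing the limit was not always enough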
RGS16-Gao HTS: modulators of RGS16 binding to Galphao, primary screen, biochemical, human proteins, multiplexed bead flow cytometry | Regulator of G-protein signaling 16 (Homo sapiens) + Guanine nucleotide-binding protein … | bead-based flow cytometry RGS16-Galphao binding, fluorescence; actives lie on both sides | binding response (% of control), % at 10 µM | hit rate 0.38% among 220,000 | AID 1441, 2008;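 active means below 25% or above 175%, edge rows of some plates excepted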;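 further: Galphao activated by GDP with aluminum fluoride before binding; 100% = wells without compound and 0% = beads without RGS; some results beyond the cut were filed as inactive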
PKD1 kinase inh: inhibitors of human PKD1 kinase, biochemical, fluorescence polarization. PKD1 kinase fluorescence polarization assay. inhibition, %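 (about 10 µM by stock and volumes)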. hit rate 0.056% among 200,000. AID 797, 2007;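 active means inhibition of 50% or more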;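 further: controls were vehicle for no effect and a reference inhibitor for full effect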
Target sequence (Q15139 whole entry, looked up): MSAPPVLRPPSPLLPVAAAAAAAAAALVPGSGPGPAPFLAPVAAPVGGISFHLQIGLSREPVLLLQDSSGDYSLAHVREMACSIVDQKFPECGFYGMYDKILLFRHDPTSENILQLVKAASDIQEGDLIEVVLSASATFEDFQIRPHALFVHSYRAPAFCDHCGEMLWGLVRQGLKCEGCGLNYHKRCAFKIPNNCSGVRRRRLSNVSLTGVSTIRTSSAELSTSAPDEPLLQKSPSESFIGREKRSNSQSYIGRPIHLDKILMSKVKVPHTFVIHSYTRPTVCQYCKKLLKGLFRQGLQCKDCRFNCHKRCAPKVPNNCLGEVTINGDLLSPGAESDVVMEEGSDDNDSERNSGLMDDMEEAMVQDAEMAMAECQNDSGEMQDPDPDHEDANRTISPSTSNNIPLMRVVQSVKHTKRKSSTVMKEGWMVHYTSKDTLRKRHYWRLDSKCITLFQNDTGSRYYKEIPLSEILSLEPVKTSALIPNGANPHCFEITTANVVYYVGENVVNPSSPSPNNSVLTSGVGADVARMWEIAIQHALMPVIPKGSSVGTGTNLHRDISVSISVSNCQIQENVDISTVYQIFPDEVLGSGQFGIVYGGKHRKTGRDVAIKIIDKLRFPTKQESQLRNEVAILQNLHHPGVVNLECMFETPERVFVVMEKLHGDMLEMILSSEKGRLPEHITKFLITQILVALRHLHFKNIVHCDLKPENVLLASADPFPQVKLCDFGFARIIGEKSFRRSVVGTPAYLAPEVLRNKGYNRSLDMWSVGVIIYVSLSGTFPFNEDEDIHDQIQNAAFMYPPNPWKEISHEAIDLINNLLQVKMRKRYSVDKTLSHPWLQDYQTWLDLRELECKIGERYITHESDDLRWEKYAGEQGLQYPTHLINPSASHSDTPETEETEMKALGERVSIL
HSV augment: enhancers of HSV replication in host cells, fold increase, host cell viability; HSV replication augmentation in cells; maximum fold increase; hit rate 0.005% among 220,000; AID 1956, 2009;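 active means peak rise of 1.5-fold or more in the series; tested in PC3 cells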;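 further: first round at 10 µM; read as green reporter fluorescence; hits show the peak of a series up to 25 µM; 1 = signal of infected wells without compound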
INS promoter inh cell count: recorded beside INS promoter inh, whose call it bears; normalized cell count, %; measured here: cell count, toxicity; reference of the scale not given here;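 cells exposed to compound for 48 h; stained nuclei by imaging scaled within each plate; lower means fewer cells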
HSV augment primary fold: further read-out of HSV augment, marked with its call; fold increase; compound at 10 µM; measured here: primary screen fold increase 10 uM; tested in PC3 cells;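 GFP signal in the first replicate; 1 = infected wells without compound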
The depositor's hits bear a star; i = inactive; nt = no result given.

Letters: A = GALR2 agonist; B = INS promoter inh; C = INS promoter inh cell count; D = RGS16-Gao HTS; E = PKD1 kinase inh; F = HSV augment; G = HSV augment primary fold
> Cc1nc(/C(N)=N/OC(=O)c2c(-c3ccccc3Cl)noc2C)cs1
  A: nt	B: nt	C: nt	D: 100	E: nt	F: i	G: 0.85
> COc1ccc(-c2cc(C(F)(F)F)nc(SCCC(=O)NCc3ccco3)n2)cc1
  A: 1.8	B: 8	C: 64	D: 99	E: -5	F: i	G: 0.99
> Cc1cc(C)cc(-n2nnnc2SCC(=O)N2CCOCC2)c1
  A: -0.8	B: -38	C: 77	D: 91	E: -5	F: i	G: 1
> COc1cc(/C=N/NS(=O)(=O)c2ccc(C)cc2)ccc1OCc1cccc(C(=O)O)c1
  A: nt	B: 20	C: 101	D: 99	E: 6	F: i	G: 0.89
> COc1ccc(/C=N\NC(=O)COc2ccc(Cl)cc2Cl)c(C(=O)O)c1OC
  A: -1.8	B: 18	C: 95	D: 104	E: 2	F: i	G: 1.1
> Cn1c(=O)c2c(nc(N3CCCCCC3)n2Cc2cccc3ccccc23)n(C)c1=O
  A: 3.0	B: nt	C: nt	D: 99	E: -3	F: nt	G: nt
> O=C(O)CSCC(=O)NCc1c(Cl)cccc1Oc1ccccc1
  A: nt	B: nt	C: nt	D: 102	E: nt	F: i	G: 0.95
> COc1ccccc1N1CCN(C(=O)c2ccc(S(=O)(=O)N3CCCC3)cc2)CC1
  A: -0.3	B: 27	C: 129	D: 97	E: 1	F: i	G: 0.82
> COc1ccccc1-c1cc(C(F)(F)F)nc(S(=O)(=O)CCCC(=O)Nc2cc(C)on2)n1
  A: 0.4	B: -29	C: 50	D: 102	E: 1	F: i	G: 0.49
> Cn1cccc1P(=O)(c1cccn1C)c1cccn1C
  A: 0.1	B: nt	C: nt	D: 100	E: 1	F: i	G: 0.97
> COc1ccc(S(=O)(=O)N2CCN(S(=O)(=O)c3ccc4c(c3)OCCO4)CC2)cc1
  A: -2.5	B: nt	C: nt	D: 98	E: -1	F: i	G: 1
> [O-]/[N+](=C\c1ccncc1)c1ccccc1
  A: -1.3	B: nt	C: nt	D: 85	E: -1	F: nt	G: nt
> COc1ccc(Cn2c(SC)nc3ccccc32)cc1[N+](=O)[O-]
  A: -0.3	B: nt	C: nt	D: 98	E: 12	F: i	G: 1.2
> O=C(NNC(=O)c1cc2cc(Br)ccc2oc1=O)c1ccc(O)cc1O
  A: nt	B: 7	C: 157	D: 111	E: -6	F: i	G: 0.91
> Cc1cc(C)n(-c2nc(NC(C)(C)C)nc(NC(C)(C)C)n2)n1
  A: -2.4	B: -21	C: 115	D: 97	E: -5	F: i	G: 1
> CCOC(=O)CSc1nc(C)c2ccccc2n1
  A: -1.4	B: 79*	C: 54*	D: 102	E: -5	F: i	G: 0.97
> CCOc1cc(/C=C(\C#N)C(N)=O)ccc1OCc1c(C)no[n+]1[O-]
  A: nt	B: 41	C: 41	D: 100	E: -6	F: i	G: 0.98
> COC(=O)c1ccc(CS(=O)(=O)c2ccccc2C)o1
  A: -3.3	B: 11	C: 67	D: 39	E: -1	F: i	G: 0.93
> CC(C)c1ccc(/C=C/C(=O)CCC(=O)O)cc1
  A: nt	B: -21	C: 99	D: 89	E: -3	F: nt	G: nt
> CCOC(=O)CNC(=O)C(NC(=O)C1CCC(C)CC1)C(C)CC (centres undefined)
  A: -2.5	B: nt	C: nt	D: 97	E: -12	F: i	G: 0.91
> Cc1nn(-c2ccccc2)c(Cl)c1/C=N/NC(=O)c1cccc(S(=O)(=O)N2CCCC2)c1
  A: -0.4	B: 0	C: 114	D: 107	E: -3	F: i	G: 1
> C=CCN(C(=O)COc1ccccc1)c1nnc(-c2ccncc2)s1
  A: -2.5	B: -60	C: 118	D: 95	E: -9	F: i	G: 1
> CC(C)CN(CCCNC(=O)CN1C(=O)CSc2ccc(S(=O)(=O)N3CCOCC3)cc21)CC(C)C
  A: nt	B: nt	C: nt	D: 103	E: -6	F: i	G: 0.94
> COc1cccc(C2C3CN(C)CC=C3C(C#N)=C(N)C2(C#N)C#N)c1OC (centres undefined)
  A: 0.4	B: -147	C: 116	D: 114	E: 4	F: nt	G: nt
> O=C(O)c1ccccc1NC(=O)C1CCCO1 (centres undefined)
  A: -0.4	B: -28	C: 58	D: 82	E: -10	F: i	G: 0.91
> CCOC(=O)C(=CNc1cc(C)ccc1[N+](=O)[O-])C(=O)OCC
  A: nt	B: nt	C: nt	D: 101	E: nt	F: i	G: 0.8
> COc1ccccc1NC(=O)c1cc(Cl)ccc1NC(=O)c1ccco1
  A: -0.9	B: nt	C: nt	D: 107	E: 2	F: i	G: 1
> CCC(C)(C)NC(=O)C1CCCN1C(=O)NC1CCCCC1 (centres undefined)
  A: nt	B: -71	C: 95	D: 103	E: 3	F: i	G: 0.93
> CCn1nnnc1SCC(=O)Nc1cccc(C)n1
  A: -1.6	B: -31	C: 76	D: 102	E: 8	F: i	G: 0.93
> CCOC(=O)c1c(NC(=O)CSc2nnc(CNC(=O)c3ccco3)n2C)sc2c1CCC2
  A: 2.7	B: 0	C: 89	D: 95	E: -4	F: i	G: 0.82
> Cc1ccc(-c2csc(N3CCC(C(N)=O)(N4CCCCC4)CC3)n2)cc1
  A: -1.4	B: nt	C: nt	D: 106	E: 0	F: i	G: 0.98
> Cn1c(SCCCC(=O)c2ccc(F)cc2)nnc1-c1ccncc1
  A: -0.4	B: -44	C: 286	D: 105	E: -7	F: i	G: 1
> CCO[C@H]1OC(C(=O)N2CCN(Cc3ccc4c(c3)OCO4)CC2)=C[C@@H](C)[C@@H]1CCCO
  A: nt	B: nt	C: nt	D: 106	E: 2	F: i	G: 0.88
> COc1ccccc1CNC(=O)C1CC(c2cccc([N+](=O)[O-])c2)=NO1 (centres undefined)
  A: 0.7	B: 22	C: 73	D: 103	E: -6	F: i	G: 0.74
> CCn1c(COc2ccccc2)nnc1SCC(=O)CC(=O)Nc1ccccc1OC
  A: -0.7	B: 12	C: 86	D: 109	E: -9	F: i	G: 0.72
> CN(c1ncc(C(F)(F)F)cc1Cl)N1C(=O)C2ONC3(C(=O)CC(C)(C)CC3=O)C2C1=O (centres undefined)
  A: nt	B: -36	C: 173	D: 102	E: -4	F: i	G: 1
> COc1cccc(CCc2nnc(CCC(=O)NC(C)c3c(C)nn(C)c3C)o2)c1 (centres undefined)
  A: nt	B: nt	C: nt	D: 113	E: -1	F: i	G: 1.1
> CCn1cc(C(=O)N2CCN(C3CCCCC3)CC2)c2cc(OC)c(OC)cc2c1=O
  A: -1.4	B: nt	C: nt	D: 98	E: -6	F: i	G: 1.1
> CC12c3ccccc3C(c3ccccc31)C1C(=O)N(c3ccncc3)C(=O)C12 (centres undefined)
  A: nt	B: nt	C: nt	D: 102	E: 5	F: i	G: 0.96
> COC(=O)c1[nH]c2cc(OC)ccc2c1NC(=O)CCN1CCSCC1
  A: -1.4	B: 16	C: 154	D: 120	E: -2	F: i	G: 0.92
> Cc1nsc(Nc2ccc([N+](=O)[O-])cc2)c1C#N
  A: nt	B: 20	C: 95	D: 92	E: -1	F: i	G: 1.1
> Cc1cc(/C=N/NC(=O)c2cccs2)c(C)n1-c1ccccc1
  A: 0.2	B: 2	C: 56	D: 97	E: -10	F: i	G: 0.8
> O=C(O)c1ccc2c(=O)n(-c3ccc(F)c(Cl)c3)c(=S)[nH]c2c1
  A: nt	B: nt	C: nt	D: 100	E: nt	F: i	G: 1
> OCCC1CN(Cc2cccn2-c2ncccn2)CCN1Cc1ccc(F)cc1 (centres undefined)
  A: nt	B: nt	C: nt	D: 100	E: nt	F: i	G: 0.86
> COCCNc1nnnc2c1sc1nc(N3CCOCC3)c3c(c12)CC(C)(C)OC3
  A: nt	B: nt	C: nt	D: 102	E: -5	F: i	G: 0.99
> CC(=O)Nc1ccc(S(=O)(=O)NCC(=O)OCC(=O)NC23CC4CC(CC(C4)C2)C3)cc1
  A: -0.9	B: 26	C: 151	D: 108	E: 0	F: i	G: 0.89
> CN1CCc2cccc3c2[C@H]1Cc1ccc(O)c(O)c1-3
  A: -0.6	B: 5	C: 112	D: 92	E: 33	F: i	G: 0.91
> Cc1cc(C#N)c(C)n1-c1cc(S(=O)(=O)N2CCOCC2)ccc1N1CCCC1
  A: -1.2	B: 11	C: 92	D: 72	E: -2	F: i	G: 1
> CCCc1ccc(-c2c(C)sc(N)c2C#N)cc1
  A: -1.3	B: 16	C: 120	D: 100	E: -7	F: i	G: 0.69
> COC(=O)NCCOc1nc(N(C)C)nc(N(C)C)n1
  A: -0.5	B: 23	C: 63	D: 81	E: -11	F: i	G: 0.86

Following part
Letters: A = GALR2 agonist; B = INS promoter inh; C = INS promoter inh cell count; D = RGS16-Gao HTS; E = PKD1 kinase inh; F = HSV augment; G = HSV augment primary fold
> O=C(NCCCN1CCOCC1)c1ccc(Sc2cccc(Cl)c2)c([N+](=O)[O-])c1
  A: 0.9	B: -51	C: 128	D: 96	E: -16	F: i	G: 0.82
> CN(C)CCNC(=O)/C(=C/c1ccc(-c2ccc(Cl)cc2Cl)o1)NC(=O)c1ccccc1
  A: 1.6	B: -54	C: 120	D: 108	E: 14	F: i	G: 0.51
> O=C(Nc1ccccc1F)Nc1cc(S(=O)(=O)N2CCOCC2)ccc1N1CCCC1
  A: nt	B: -13	C: 138	D: 101	E: -8	F: i	G: 0.97
> COc1cccc(-c2cc(C(=O)N3CCCc4ccccc43)no2)c1
  A: -2.3	B: 14	C: 94	D: 104	E: -11	F: i	G: 0.86
> CCOC(=O)c1nnn(CC(=O)NC(=O)Nc2ccc(F)cc2)c1C(=O)OCC
  A: nt	B: nt	C: nt	D: 99	E: -2	F: i	G: 0.95
> Cc1occc1C(=O)Nc1cccc(C(=O)O)c1
  A: -3.6	B: -22	C: 115	D: 96	E: -6	F: i	G: 0.71
> CC1(C(=O)CSc2nc3ccccc3[nH]2)CCC(=O)O1 (centres undefined)
  A: -0.9	B: -20	C: 111	D: 102	E: -4	F: i	G: 1.2
> Cn1cnnc1SCC(=O)c1ccc2c(c1)CCCC2
  A: -2.5	B: nt	C: nt	D: 113	E: -2	F: i	G: 0.85
> O=C(O)CCc1ccc(-c2cccs2)n1NC(=O)c1ccc(O)cc1
  A: -1.2	B: -77	C: 96	D: 107	E: 1	F: i	G: 0.83
> Cc1c2c(nc3ccccc13)OCC2
  A: -1.8	B: -19	C: 59	D: 104	E: -5	F: i	G: 1
> O=C(Cc1cc(=O)[nH][nH]1)N/N=C/c1ccccc1Cl
  A: -1.0	B: 19	C: 184	D: 104	E: -7	F: i	G: 1
> N#CC(c1cccc(Cl)c1)c1ncc(C(F)(F)F)cc1Cl (centres undefined)
  A: -2.6	B: -30	C: 108	D: 103	E: 10	F: i	G: 0.81

Entries of single compounds from above:
O=C(Nc1ccccc1F)Nc1cc(S(=O)(=O)N2CCOCC2)ccc1N1CCCC1 is listed as GALR2 agonist = nt; INS promoter inh = -13; INS promoter inh cell count = 138; RGS16-Gao HTS = 101; PKD1 kinase inh = -8; HSV augment = i; HSV augment primary fold = 0.97
O=C(NCCCN1CCOCC1)c1ccc(Sc2cccc(Cl)c2)c([N+](=O)[O-])c1 is listed as GALR2 agonist = 0.9; INS promoter inh = -51; INS promoter inh cell count = 128; RGS16-Gao HTS = 96; PKD1 kinase inh = -16; HSV augment = i; HSV augment primary fold = 0.82

Of the compounds above, these have a COOH group:
Letters: A = GALR2 agonist; B = INS promoter inh; C = INS promoter inh cell count; D = RGS16-Gao HTS; E = PKD1 kinase inh; F = HSV augment; G = HSV augment primary fold
> COc1cc(/C=N/NS(=O)(=O)c2ccc(C)cc2)ccc1OCc1cccc(C(=O)O)c1
  A: nt	B: 20	C: 101	D: 99	E: 6	F: i	G: 0.89
> COc1ccc(/C=N\NC(=O)COc2ccc(Cl)cc2Cl)c(C(=O)O)c1OC
  A: -1.8	B: 18	C: 95	D: 104	E: 2	F: i	G: 1.1
> O=C(O)CSCC(=O)NCc1c(Cl)cccc1Oc1ccccc1
  A: nt	B: nt	C: nt	D: 102	E: nt	F: i	G: 0.95
> CC(C)c1ccc(/C=C/C(=O)CCC(=O)O)cc1
  A: nt	B: -21	C: 99	D: 89	E: -3	F: nt	G: nt
> O=C(O)c1ccccc1NC(=O)C1CCCO1 (centres undefined)
  A: -0.4	B: -28	C: 58	D: 82	E: -10	F: i	G: 0.91
> O=C(O)c1ccc2c(=O)n(-c3ccc(F)c(Cl)c3)c(=S)[nH]c2c1
  A: nt	B: nt	C: nt	D: 100	E: nt	F: i	G: 1
> Cc1occc1C(=O)Nc1cccc(C(=O)O)c1
  A: -3.6	B: -22	C: 115	D: 96	E: -6	F: i	G: 0.71
> O=C(O)CCc1ccc(-c2cccs2)n1NC(=O)c1ccc(O)cc1
  A: -1.2	B: -77	C: 96	D: 107	E: 1	F: i	G: 0.83
